# AID923: qHTS Assay for Allosteric/Competitive Inhibitors of Caspase-1: Spectroscopic Profiling in AFC Spectral Region. compound fluorescence, AFC spectral region (405/520 nm); almost no hit is shown here. Potency, µM (top dose mostly 57.5 µM), for inactives: top-dose fluorescence increase, usual class: activators. actives 1.1% (n = 75,000); active = well fitted activation curve with a large enough effect; inconclusive = small, poorly fitted or top-dose-only effect;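 note: potency is the fitted concentration of half-maximal effect; 0% is about no effect; scaled to a free AFC standard on each plate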
#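 Compound autofluorescence profiled at 405 nm ex/520 nm em during kinetic caspase 1 run (50 nM enzyme, 5 uM Ac-WEHD-AFC, HEPES pH 7.5, 10 mM DTT). Titration up to 57 uM; baseline from regression intercept, normalized to AFC standard curve.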
# A647 autofl: compound fluoresces in the A647 spectral region. Compound fluorescence, A647 channel (570/671 nm), Tris buffer. max dye-equivalent concentration, M. 59,000 tested, under 10 active; active means above 1 µM dye equivalent; inconclusive means 0.1 to 1 µM; inactive means 0.1 µM or less;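 note: values scaled relative to a standard on each plate; highest value over a series up to 38 µM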
#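 Tris 100 mM pH 8.0; cpd + A647 stds pin-transferred; 15 min RT; CCD imager, ex 570/em 671. Output = A647-equivalent conc. per cpd conc.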
# TSHR ag: agonists of human thyroid stimulating hormone receptor; AID 926; Potency, µM (series often up to 57.1 µM), for inactives: at the top dose activation, hits mostly activators; HEK293-CNG-TSHR cells (CNG channel as cAMP sensor), membrane potential dye, cAMP; P16473; actives 0.48% (n = 73,000); active = well fitted activation curve of enough size with the parental cells flat; inconclusive = any curve in the parental cells; inactive = parental cells flat and receptor cells flat or falling; note: potency is the fitted concentration of half-maximal effect; % of control where 0% means no effect; weak receptor curves with flat parental cells got no call and are not listed
# Target sequence (P16473 whole entry, looked up): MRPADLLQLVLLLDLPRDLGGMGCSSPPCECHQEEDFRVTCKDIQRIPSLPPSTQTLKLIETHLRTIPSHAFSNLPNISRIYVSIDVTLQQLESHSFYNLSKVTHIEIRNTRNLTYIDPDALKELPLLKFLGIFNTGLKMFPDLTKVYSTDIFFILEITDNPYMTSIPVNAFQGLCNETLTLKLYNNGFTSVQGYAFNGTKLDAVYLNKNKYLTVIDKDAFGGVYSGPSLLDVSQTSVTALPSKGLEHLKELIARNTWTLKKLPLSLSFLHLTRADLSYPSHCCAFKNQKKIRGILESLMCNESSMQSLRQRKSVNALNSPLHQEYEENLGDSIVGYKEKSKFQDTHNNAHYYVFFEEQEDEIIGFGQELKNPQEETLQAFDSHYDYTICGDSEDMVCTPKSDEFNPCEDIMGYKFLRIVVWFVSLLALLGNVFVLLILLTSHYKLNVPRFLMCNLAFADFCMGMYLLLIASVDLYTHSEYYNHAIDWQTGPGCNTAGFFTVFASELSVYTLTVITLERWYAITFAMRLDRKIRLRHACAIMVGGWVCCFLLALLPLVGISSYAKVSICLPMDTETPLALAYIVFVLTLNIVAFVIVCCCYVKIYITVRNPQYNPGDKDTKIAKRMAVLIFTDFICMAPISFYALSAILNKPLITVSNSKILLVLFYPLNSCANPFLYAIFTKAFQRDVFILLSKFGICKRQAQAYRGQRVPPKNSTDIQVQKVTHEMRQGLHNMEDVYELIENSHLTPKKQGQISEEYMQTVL
#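 HEK 293 cells stably expressing TSHR and a cAMP-gated CNG channel; parental CNG-only cells as counterscreen. Cells preloaded 60 min with membrane potential dye plus 100 uM RO 20-1724, then compound 30 min; fluorescence read at 590 nm.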
# A488 autofl: compound autofluorescence in A488 spectral region; compound autofluorescence, A488 spectral region, dye equivalency; hits give high values; max dye equivalency, M; actives 0.1% (n = 59,000); AID 591; active = above 10 nM dye equivalent; inconclusive = 1 to 10 nM; inactive = 1 nM or less; about half of its hits are not listed in these tables;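 note: highest value over a series up to 38 µM; compound alone in buffer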
#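 Compound autofluorescence was read in 100 mM Tris pH 8.0 after 15 min at room temperature, ex 480 nm/em 540 nm. Intensities were converted to A488 dye-equivalent concentration using an on-plate six-point A488 standard curve.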
# Resorufin autofl: compound fluoresces in the resorufin spectral region; Compound fluorescence, resorufin region 547/598 nm, buffer; hits give high values; max dye-equivalent concentration, M; actives 0.04% (n = 59,000); AID 588; active = above 10 nM dye equivalent; inconclusive = 1 to 10 nM; inactive = 1 nM or less; a few of its hits are not listed in these tables; note: highest value over a series up to 38 µM
#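 Intrinsic fluorescence profiled in the resorufin window (ex 547 nm, em 598 nm) after 15 min at room temperature in pH 8.0 Tris buffer (100 mM); responses normalized against a six-point resorufin standard series as dye-equivalent concentration.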
# * hit, by the source's call; i = inactive; ? = inconclusive; · = not tested or not shown; [ ] = dose if it differs, or a comment. The list is partial; the hit share may differ from the screen's.
SMILES	AID923	A647 autofl	TSHR ag	A488 autofl	Resorufin autofl
COc1ccccc1N1CCN(Cc2nnnn2CCc2ccccc2)CC1	-0.7%	5.3e-09	5%	i	i
O=c1[nH][nH]c(=O)c2cc([N+](=O)[O-])ccc12	4.9%	·	-5%	·	·
Cc1oc2c(CN(C)C)c(O)ccc2c(=O)c1-c1ccc2ccccc2n1	-2.1%	2e-09	2%	i	i
OCCN1CCN(Cc2cccc(Oc3ccc(Cl)cc3)c2)CC1	-1.0%	·	10%	·	·
Cc1ccc(N2C(=O)NC3(CCCCC3)C2=O)cc1	2.6%	4e-08	1%	i	i
CS(=O)(=O)NCCOc1ccc(S(=O)(=O)N2CCCc3ccccc32)cc1	-2.8%	2.9e-09	-5%	i	i
CN1c2cccc3cccc(c23)N(C)C1(C)C	2.0%	1.2e-08	-4%	i	i
Nc1nonc1-c1noc(CCCOc2ccc(Cl)cc2Cl)n1	0.5%	2.5e-09	10%[11.4 µM]	i	i
Cc1cc(N)n(-c2ccccc2)n1	0.4%	·	-4%	·	·
CCOC(=O)OCC1OC(c2ccc(C(C)=O)cc2)C=CC1OC(=O)OCC (centres undefined)	2.7%[11.5 µM]	·	-8%[11.4 µM]	·	·
CC(C)CC(C(=O)NCc1ccccn1)N1C(=O)c2ccccc2C1=O (centres undefined)	-0.5%	5.6e-09	-6%	i	i
COc1cc(OC)c(C2CC(=O)N3CN(c4ccccc4)CSC3=C2C#N)cc1OC (centres undefined)	3.2%	9.1e-09	6%	i	i

# Brought forward from above: 3 entries, followed by the next part.
SMILES	AID923	A647 autofl	TSHR ag	A488 autofl	Resorufin autofl
CCOC(=O)OCC1OC(c2ccc(C(C)=O)cc2)C=CC1OC(=O)OCC (centres undefined)	2.7%[11.5 µM]	·	-8%[11.4 µM]	·	·
CC(C)CC(C(=O)NCc1ccccn1)N1C(=O)c2ccccc2C1=O (centres undefined)	-0.5%	5.6e-09	-6%	i	i
COc1cc(OC)c(C2CC(=O)N3CN(c4ccccc4)CSC3=C2C#N)cc1OC (centres undefined)	3.2%	9.1e-09	6%	i	i
COc1ccccc1-c1nc(SCc2ccccn2)n[nH]1	-1.1%	4.3e-08	1%	i	i
C[Si](C)(C)Cl	-1.5%	·	0%	·	·
NC(=O)C1CCCN(C(=O)NC2CCCCC2)C1 (centres undefined)	-0.7%	4.1e-09	5%	i	i
Nc1ncnc2nn([C@H]3O[C@@H](CO)[C@@H](O)[C@H]3O)nc12	4.5%[11.5 µM]	1e-08	-8%[11.4 µM]	i	i
O=S(=O)(Nc1ccc2c(c1)OCCO2)c1cccc2nsnc12	2.0%	1.3e-08	20%[11.4 µM]	i	i
CC(=O)NC(CC(=O)Nc1ccc(S(=O)(=O)N2CCCC2)cc1)c1ccccc1 (centres undefined)	-0.5%	1.5e-09	1%	i	i
C/C(Cl)=C/Cn1c(NCCN(C)C)nc2c1c(=O)n(C)c(=O)n2C	-0.8%	1.7e-09	-5%	i	i
Clc1ccc(-c2nnc(SCc3cn4ccsc4n3)n2CC2CCCO2)cc1 (centres undefined)	-1.2%	2.2e-09	8%	i	i
COc1ccc(CN[C@H](C)C(=O)O)cc1	4.3%[11.5 µM]	1e-09	1%[11.4 µM]	i	i
Cc1ccc(S(=O)(=O)NC(=O)Nc2ncn[nH]2)cc1	0.8%[11.5 µM]	5e-09	-1%[11.4 µM]	i	i
O=C(CSc1ncn(-c2ccccc2)n1)N1CCN(c2ccccc2)CC1	-0.4%	1.7e-09	21%	i	i
CC(C)CC(/C(O)=C(\C#N)c1nc2ccccc2[nH]1)N1C(=O)c2ccccc2C1=O (centres undefined)	1.8%	·	-17%	·	·
O=C(O)CNc1ccc(C(=O)O)cc1	1.4%[11.5 µM]	1e-09	-8%[11.4 µM]	i	i
COCCNC(=O)CN1CCC(NC(=O)Nc2ccccc2)CC1	0.6%	1e-09	-1%	i	i
CCOC(=O)CC1C(=O)NCCN1C(=O)COc1ccc(Br)cc1C (centres undefined)	-1.5%	7.2e-08	2%	i	i
Cc1sc2nc(CN(Cc3cccs3)C(=O)NC3CCCCC3)[nH]c(=O)c2c1C	5.8%	1e-08	?	i	i
CC(=O)c1ccccc1Oc1nc(CN2CCOCC2)nc2scc(-c3cccs3)c12	20%	2.3e-09	?	i	i
O=C(c1cc2ccccc2o1)N1CCN=C1SCc1cccc(F)c1	-0.4%	·	24%	·	·
Fc1cccc2sc(N3CCCCC3)nc12	-2.8%	2.1e-08	?	i	i
COc1ccc(C2C3=C(CCCC3=O)Nc3nc(C(F)(F)F)nn32)cc1OC (centres undefined)	-0.8%	9e-09	1%	i	i
Cc1noc(NS(=O)(=O)c2ccc(NC(=O)c3ccc(Br)o3)cc2)c1C	-0.6%	4.2e-09	-3%	i	i
NC(=O)CSc1nc2c(sc3ccccc32)c(=O)n1CCCN1CCOCC1	-1.6%	1.9e-09	17%	i	i
O=C(NC1CCCC1)c1cc(-c2cccs2)on1	-0.6%	1.7e-08	3%	i	i
CC(C)Cc1nc(N2CCOCC2)c(C#N)c2c1CCC2	·	1e-09	·	i	i
COC(=O)c1ccccc1NC(=O)CN(c1ccccc1)S(=O)(=O)N(C)C	-1.9%	1.2e-09	?	i	i
N#CC1=C(N)Oc2ccccc2C12C(=O)Nc1n[nH]c(-c3ccccc3)c12 (centres undefined)	-1.3%	3.6e-08	0%	i	i
CC(O)CN(Cc1cccc(Cl)c1)CC(C)O (centres undefined)	-1.5%	1.7e-08	?	i	i
COc1ccc(C2C(C(=O)N3CCCC3)c3cc(OC)c(OC)cc3C(=O)N2C)cc1OC (centres undefined)	0.1%	1.6e-08	1%	i	i
O=C1CCCC2=C1C(c1ccncc1)c1c(nc(SCc3ccccc3Cl)[nH]c1=O)N2 (centres undefined)	1.8%	2.6e-08	4%	i	i
CCOC(=O)c1sc2nc(C)n(CC(=O)NCC3CCCO3)c(=O)c2c1C (centres undefined)	-0.3%	2.1e-08	-2%[11.4 µM]	i	i
O=C(CCn1c(=O)c2ccccc2n(Cc2cccnc2)c1=O)NCc1ccc2c(c1)OCO2	-0.6%	5.6e-09	7%[11.4 µM]	i	i
Cc1noc(C)c1COC(=O)C1(c2cccc(F)c2)CCCC1	-1.0%	1.8e-08	?	i	i
CN(C)c1ccc(S(=O)(=O)c2ccc(Cl)cc2)cc1	0.6%	·	3%	·	·
COc1ccc(C(=O)Nc2oc(-c3ccccc3)c(-c3ccccc3)c2C#N)cc1OC	1.9%	1e-09	14%	i	i
Cc1c(CNC(=O)c2cnn3c2NC(c2ccc(Br)cc2)CC3C(F)(F)F)cnn1C (centres undefined)	-3.4%	5.4e-09	-6%	i	i
Cc1cc(C)cc(C#CC2C=CC(Oc3ccc(C4CCCC4)cc3)C(CO)O2)c1 (centres undefined)	-1.1%[11.5 µM]	·	5%[11.4 µM]	·	·
CCn1c(=O)[nH]c2cc(C(=O)N3CCN(c4ccccc4)CC3)ccc2c1=O	-0.2%	1e-09	2%	i	i
CC(=N)C1=C(O)CC(C)(C)CC1=O	-1.3%	·	3%	·	·
Nc1ccc(S(=O)(=O)NCc2nccs2)cc1	0.7%[11.5 µM]	1e-09	5%[11.4 µM]	i	i
O=C1CC(N2CCN(S(=O)(=O)c3ccc(Cl)cc3)CC2)C(=O)N1CCc1ccccc1 (centres undefined)	1.1%	1.7e-08	11%	i	i
C/C=C/Cn1c(N2CCCCCC2)nc2c1c(=O)[nH]c(=O)n2C	0.8%	1e-09	2%	i	i
CO/N=C\[C@@H](OC)[C@H](C)/C=C\CC(=O)OC	-3.3%[11.5 µM]	·	1%[11.4 µM]	·	·
CCCOc1ccc(-c2nc(C#N)c(N3CCN(CC)CC3)o2)cc1	0.7%	7.9e-09	·	i	i
CCCOc1cccc(C2/C(=C(/O)c3ccncc3)C(=O)C(=O)N2CCCN(C)C)c1 (centres undefined)	-0.5%	1e-09	6%	i	i
Cc1ccc(S(=O)(=O)N2CCOCC2)cc1C(=O)OCC(=O)N1CCc2ccccc2C1	-0.5%	1e-09	13%	i	i
CCN=C1Cn2c(nc3scc(-c4ccccc4)c3c2=O)CN1CC	5.5%	7.5e-09	-15%	i	i
CCCCCCCCCCCCC/C=C\[C@@H](O)[C@@H](N)CO	-1.9%	·	9%	·	·
CC(C)=CCC/C(C)=C/CO	5.2%[11.5 µM]	3.4e-08	-2%[11.4 µM]	i	i

# Gathered by group, the entries above with a CF3 group
SMILES	AID923	A647 autofl	TSHR ag	A488 autofl	Resorufin autofl
COc1ccc(C2C3=C(CCCC3=O)Nc3nc(C(F)(F)F)nn32)cc1OC (centres undefined)	-0.8%	9e-09	1%	i	i
Cc1c(CNC(=O)c2cnn3c2NC(c2ccc(Br)cc2)CC3C(F)(F)F)cnn1C (centres undefined)	-3.4%	5.4e-09	-6%	i	i

# The results go on:
SMILES	AID923	A647 autofl	TSHR ag	A488 autofl	Resorufin autofl
CC(=O)Nc1ccccc1C(=O)N1CC(C)OC(C)C1 (centres undefined)	1.1%	4.9e-09	-1%	i	i
Cc1cc(C)nc(N(C#N)S(=O)(=O)c2ccccc2Cl)n1	·	1e-09	·	i	i
CCC(=O)N1CCc2cc(S(=O)(=O)CCC(=O)Nc3c(C)n(C)n(-c4ccccc4)c3=O)ccc21	0.5%	1e-09	1%	i	i
COc1cc(C2C(C(=O)c3ccco3)=C(O)C(=O)N2Cc2cccnc2)cc(OC)c1OC (centres undefined)	0.6%	·	23%	·	·
CC(=O)NC(Cc1c[nH]c2ccccc12)C(=O)Nc1ccc2c(c1)OCO2 (centres undefined)	-0.2%	1e-09	-14%	i	i
CC(=O)NC1(C2CCCCC2=O)CCCCC1 (centres undefined)	2.2%	·	26%	·	·
COc1ccc(NC(=O)Nc2nccs2)cc1	-0.3%	4.2e-09	·	i	i
O=C(Nc1nccs1)NC1CCCCC1	-0.2%	4.6e-09	?	i	i
CCC(COC(=O)Nc1cccc(C)c1C)NC(=O)OCC(C)C (centres undefined)	-1.6%	2.5e-09	31%	i	i
O=C1CCCCCN1Cc1nnc(SCc2nc3ccccc3s2)n1-c1ccccn1	0.4%	6.1e-08	-8%	i	i
CCN(CC)CCOc1ncnc2c1oc1ccccc12	0.2%	1e-09	11%[11.4 µM]	i	i
Cc1nc(C)c(C(=O)Nc2cccc(C)c2C)o1	0.3%	·	-1%	·	·
Clc1ccc(OCc2nc(-c3ccccn3)no2)c(Br)c1	-0.8%	·	27%	·	·
Cc1c(NC(=O)c2ccco2)cccc1-c1nc2cccnc2s1	1.5%	·	5%	·	·
CCOc1ccc(NC(=O)CSc2nnc(Cn3c(=O)sc4ccccc43)n2C)cc1	-2.3%	·	3%	·	·
OC(CN1CCOCC1)C12CC3CC(CC(C3)C1)C2 (centres undefined)	4.1%	4.3e-09	7%	i	i
Cc1ccc(C(=O)C2=C(O)C(=O)N(CCN(C)C)C2c2ccccn2)o1 (centres undefined)	4.6%	1e-09	0%	i	i
O=C(c1ccc(Cn2c(=O)[nH]c3ccccc3c2=O)cc1)N1CCN(c2ccc(F)cc2)CC1	0.2%	3.9e-09	7%	i	i
O=C(O)C(CC(=O)N1CCOCC1)NCc1ccccc1 (centres undefined)	-1.4%	3.3e-08	4%	i	i
COC(=O)Nc1nc2c(C)cccc2s1	0.1%	2.3e-08	-2%	i	i
COc1ccc(OC)c(NC(=O)CSc2nc3c(c(=O)n(C)c(=O)n3C)n2C)c1	-0.5%	7.9e-09	3%	i	i
Cc1nn(-c2ccccc2)c2sc(C(=O)N3CCOCC3)cc12	-0.1%	1e-09	?	i	i

# Screening data deposited in PubChem BioAssay by National Center for Advancing Translational Sciences (NCATS).
